Compound activity from PubChem.
Vaccinia inh: blocks a specific stage of Vaccinia orthopoxvirus infection. Vaccinia-infected cells, mCherry/Venus stage reporter fluorescence; active compounds read low; some inactives read as strong as hits. activity change (mCherry), % (concentration not given with the values). 89,000 tested, 0.01% active. AID 1053133;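 active = mCherry past -33% and 40 or more points under the early reporter, replicates agreeing; inconclusive = past -33% without that gap or agreement; tested in A549 cells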;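 also: scaled between vehicle wells and reference inhibitor wells; 23 nL library stock went into each well; one replicate is shown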
Vaccinia inh Venus: also measured in Vaccinia inh; calls as there; activity change (Venus), %; measured here: Venus reporter, other viral stage;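 negative = less Venus signal; first of two replicates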
Active calls of the source: *; ? = inconclusive; / = not tested or not shown; & = joins results of further samples. This is a subset (hit frequency here may not be typical).

SMILES	Vaccinia inh	Vaccinia inh Venus
COc1ccc(NC(=O)Nc2ccc3c(c2)C(=O)N([C@H](C)CO)C[C@@H](C)[C@@H](CN(C)CC2CCCCC2)OCCCC[C@@H](C)O3)cc1	?	/
CO[C@@H]1CN(C)C(=O)c2cc(NC(=O)Nc3c(C)noc3C)ccc2OC[C@@H](C)N(CCC(F)(F)F)C[C@@H]1C	-6	4
CCC(=O)N[C@H]1C=C[C@H](CC(=O)NCCN2CCCCC2)O[C@@H]1CO	13	12
CC(=O)N1CC2(C1)[C@H](c1ccccc1)[C@@H](CO)N2CC1CCOCC1	13	9
O=C(C1CCCC1)N1CC(=O)N2[C@H](CO)[C@@H](c3ccc(Br)cc3)[C@H]2C1	11	7
CCCC(=O)Nc1ccc2c(c1)OC[C@@H](C)N(Cc1ccc(-c3ccccn3)cc1)C[C@@H](C)[C@H](OC)CN(C)C2=O	-30	-29
Cc1ccc(S(=O)(=O)Nc2cccc3c2O[C@@H](CN(C)S(=O)(=O)c2cccs2)[C@@H](C)CN([C@H](C)CO)C3=O)cc1	-16	-10
C[C@@H]1CN([C@H](C)CO)C(=O)c2cc(-c3ccc(F)cc3)cnc2O[C@@H]1CN(C)Cc1cncnc1	14	6
CNC[C@H]1Oc2ncc(C#CC3CCCCC3)cc2C(=O)N([C@@H](C)CO)C[C@H]1C	-25	-10
O=C(C[C@H]1CC[C@@H]2[C@H](COC[C@@H](O)CN2Cc2cccc(C(F)(F)F)c2)O1)NCCc1ccccc1	?	/
COc1ccccc1NC(=O)N(C)C[C@@H]1OCc2cnnn2CCCC(=O)N([C@@H](C)CO)C[C@H]1C	9&-5	2&0
Cc1ccc(S(=O)(=O)Nc2ccc3c(c2)C(=O)N([C@H](C)CO)C[C@H](C)[C@H](CN(C)S(=O)(=O)c2cn(C)cn2)OCCCC[C@H](C)O3)cc1	6	10
C[C@@H]1CN([C@H](C)CO)C(=O)CCCn2cc(nn2)CO[C@H]1CN(C)C(=O)c1ccncc1	8	5
COCC(=O)Nc1ccc2c(c1)C(=O)N(C)C[C@@H](OC)[C@@H](C)CN(CCC(F)(F)F)[C@H](C)CO2	4	0
C[C@@H]1CN([C@H](C)CO)S(=O)(=O)c2ccc(-c3ccccc3F)cc2O[C@H]1CN(C)Cc1cccnc1	?	/
CC(C)NC(=O)N1CC2(C1)[C@@H](c1ccccc1)[C@H](CO)N2C(=O)C1CCC1	1	5
C[C@@H]1CN([C@H](C)CO)S(=O)(=O)c2ccc(-c3cccc(C(=O)N(C)C)c3)cc2O[C@@H]1CN(C)C(=O)Nc1ccc(F)cc1	22	5
CN1c2ccc(C#Cc3cccnc3)cc2[C@H]2[C@H](CCN2C(=O)C2CCOCC2)[C@@H]1CO	-3	-5
CC(C)(O)C#Cc1ccc([C@@H]2[C@@H](CO)N3CCCCN(C(=O)c4ccc(F)cc4)C[C@@H]23)cc1	18	3
CN1CCN(C(=O)C[C@@H]2C=C[C@@H](NC(=O)Cc3ccccn3)[C@H](CO)O2)CC1	4	-4
CC(C)NC(=O)N(C)C[C@@H]1Oc2ccc(NC(=O)Cc3cn(C)c4ccccc34)cc2CC(=O)N([C@@H](C)CO)C[C@H]1C	6	4
O=C(Cc1ccncc1)N1CCCCN2[C@H](C1)[C@H](c1ccc(C#CC3(O)CCCC3)cc1)[C@@H]2CO	20	12
COc1ccccc1-c1cccc(-c2nc(C(=O)N3CCOCC3)cc3c2[C@H](CCO)N([S@@](=O)C(C)(C)C)C3)c1	-10	17
CCCC#Cc1ccc([C@H]2[C@@H](C#N)N(C(=O)CN3CCOCC3)[C@H]2CO)cc1	-2	-1
O=C(c1ccc(F)cc1)N1CC(=O)N2[C@H](CO)[C@H](c3ccc(C#CCC4CCCC4)cc3)[C@@H]2C1	?	/
OC[C@H]1[C@H](c2ccc(C#CC3(O)CCCC3)cc2)[C@@H]2CN(Cc3ccncc3)CCCCN12	7	1
CN(C)C(=O)C[C@H]1C[C@@H]2c3cc(NS(=O)(=O)c4ccccc4)ccc3O[C@@H]2[C@H](CO)O1	-2	-1
CN(C)C(=O)[C@@H]1[C@@H](CO)[C@@H]2Cn3c(ccc(/C=C/c4ccccc4)c3=O)[C@@H]2N1C(=O)c1cccnc1	5	-3
C[C@H]1CN([C@@H](C)CO)C(=O)c2cc(C#CCc3ccccc3)cnc2O[C@@H]1CN(C)CC1CCOCC1	-5	3
COc1ccccc1CN(C)C[C@H]1OCc2cn(nn2)CCCC(=O)N([C@@H](C)CO)C[C@@H]1C	7	6
CCCC#Cc1cnc2c(c1)C(=O)N([C@H](C)CO)C[C@H](C)[C@@H](CN(C)C(=O)Nc1ccc(OC)cc1)O2	9	10
CC(C)C#Cc1cnc2c(c1)C(=O)N([C@H](C)CO)C[C@@H](C)[C@H](CN(C)Cc1cccc(F)c1)O2	-24	-19
Cc1noc(C)c1S(=O)(=O)N(C)C[C@@H]1OCCCC[C@@H](C)Oc2ccc(NC(=O)c3ccccc3)cc2C(=O)N([C@H](C)CO)C[C@H]1C	?	/
CN1C[C@@H]2[C@H](c3ccccc31)[C@@H](CO)N2Cc1ccccc1F	-1	-9
C[C@H](CO)N1C[C@H](C)[C@@H](CN(C)Cc2cccnc2)Oc2ncc(-c3cccc(C#N)c3)cc2C1=O	15&16	4&7
O=C(NC1CCCC1)N1CC(=O)N2[C@H](C1)[C@@H](c1ccc(-c3cccnc3)cc1)[C@@H]2CO	27	10
C[C@H](CO)N1C[C@H](C)[C@@H](CN(C)Cc2ccc(C(=O)O)cc2)OCCCC[C@H](C)Oc2ccc(NC(=O)Cc3ccccc3)cc2C1=O	18	2
O=C(NCCN1CCCC1)[C@H]1N[C@H]2c3ccc(C4=CCCCC4)c(=O)n3C[C@H]2[C@@H]1CO	4	2
COCC(=O)Nc1ccc2c(c1)[C@@H]1C[C@H](CC(=O)N(C)C)O[C@@H](CO)[C@@H]1O2	3	5
CCCNC(=O)Nc1ccc2c(c1)OC[C@@H](C)N(C(=O)CC)C[C@H](C)[C@@H](OC)CN(C)C2=O	9	4
Cc1ccc(S(=O)(=O)Nc2ccc3c(c2)CC(=O)N([C@@H](C)CO)C[C@H](C)[C@@H](CN(C)CC2CC2)O3)cc1	-3	6
C[C@@H]1CCCCO[C@@H](CN(C)S(C)(=O)=O)[C@@H](C)CN([C@@H](C)CO)C(=O)c2cc(NS(=O)(=O)c3ccc(Cl)cc3)ccc2O1	21	10
C[C@@H]1CN([C@H](C)CO)C(=O)Cc2cc(NC(=O)Nc3ccccc3)ccc2O[C@H]1CN(C)Cc1ccc(C(=O)O)cc1	5	2
CN1CCN(C(=O)[C@H]2[C@H](CO)[C@H]3Cn4c(ccc(-c5cncnc5)c4=O)[C@H]3N2CC2CCCC2)CC1	14	-3
C[C@@H]1CCCCO[C@@H](CN(C)S(=O)(=O)c2ccccc2)[C@@H](C)CN([C@@H](C)CO)C(=O)c2cc(NC(=O)Nc3ccc(F)cc3)ccc2O1	26	0
C/C=C/c1ccc(C2[C@H]3CNC[C@@H]2N3Cc2cc(-c3ccccc3)on2)cc1 (some centres undefined)	-31&4	-29&-4
C[C@H]1CN([C@@H](C)CO)C(=O)Cc2cc(NC(=O)Nc3ccccc3)ccc2O[C@H]1CN(C)S(=O)(=O)c1cn(C)cn1	15	12
C[C@@H]1CCCCO[C@@H](CN(C)C(=O)c2ccccc2)[C@@H](C)CN([C@@H](C)CO)C(=O)c2cc(NC(=O)NC3CCCCC3)ccc2O1	8	2
CC(=O)N(C)C[C@@H]1Oc2cc(C#Cc3ccccc3)ccc2S(=O)(=O)N([C@H](C)CO)C[C@H]1C	-24	-20
C[C@@H]1CN([C@@H](C)CO)C(=O)CCCn2nncc2CO[C@H]1CN(C)S(=O)(=O)c1cccc(C#N)c1	2	2

Remaining list, next part
SMILES	Vaccinia inh	Vaccinia inh Venus
CC(C)CC#Cc1ccc2c(c1)O[C@@H](CN(C)Cc1ccc3c(c1)OCO3)[C@H](C)CN([C@H](C)CO)S2(=O)=O	?	/
CNC[C@H]1OCCCC[C@@H](C)Oc2ccc(NS(=O)(=O)c3ccc(OC)cc3)cc2C(=O)N([C@H](C)CO)C[C@@H]1C	11	5
COC(=O)C[C@H]1C[C@@H]2c3cc(N(C)C)ccc3O[C@@H]2[C@H](CO)O1	3	23
C[C@@H]1CN([C@H](C)CO)S(=O)(=O)c2ccc(C#Cc3ccncc3)cc2O[C@@H]1CN(C)S(=O)(=O)c1ccccc1	?	/
CO[C@@H]1CN(C)C(=O)c2cc(NC(=O)NC3CCCCC3)ccc2OC[C@@H](C)N(CCc2ccccc2)C[C@@H]1C	?	/
O=C(C[C@@H]1CC[C@@H]2[C@H](COC[C@@H](O)CN2C(=O)c2ccccc2)O1)N1CCOCC1	26	18
COc1ccc(S(=O)(=O)N(C)C[C@@H]2Oc3ccc(NC(=O)Cn4cnnn4)cc3CC(=O)N([C@H](C)CO)C[C@H]2C)cc1	15	14
O=C(CN1CCOCC1)N1CC2(C1)[C@H](c1ccccc1)[C@@H](CO)N2Cc1ccccc1	23	11
COc1ccccc1CNC(=O)C[C@H]1CC[C@H]2[C@@H](COC[C@H](O)CN2Cc2ccc3c(c2)OCO3)O1	-11	-12
Cc1ccc(-c2ccc3c(c2)O[C@H](CN(C)Cc2ccccn2)[C@@H](C)CN([C@@H](C)CO)S3(=O)=O)cc1	?	/

Ten of these compounds, set out differently:
compound | Vaccinia inh | Vaccinia inh Venus
C[C@@H]1CN([C@@H](C)CO)C(=O)CCCn2nncc2CO[C@H]1CN(C)S(=O)(=O)c1cccc(C#N)c1 | 2 | 2
CC(C)CC#Cc1ccc2c(c1)O[C@@H](CN(C)Cc1ccc3c(c1)OCO3)[C@H](C)CN([C@H](C)CO)S2(=O)=O | ? | /
CNC[C@H]1OCCCC[C@@H](C)Oc2ccc(NS(=O)(=O)c3ccc(OC)cc3)cc2C(=O)N([C@H](C)CO)C[C@@H]1C | 11 | 5
COC(=O)C[C@H]1C[C@@H]2c3cc(N(C)C)ccc3O[C@@H]2[C@H](CO)O1 | 3 | 23
C[C@@H]1CN([C@H](C)CO)S(=O)(=O)c2ccc(C#Cc3ccncc3)cc2O[C@@H]1CN(C)S(=O)(=O)c1ccccc1 | ? | /
CO[C@@H]1CN(C)C(=O)c2cc(NC(=O)NC3CCCCC3)ccc2OC[C@@H](C)N(CCc2ccccc2)C[C@@H]1C | ? | /
O=C(C[C@@H]1CC[C@@H]2[C@H](COC[C@@H](O)CN2C(=O)c2ccccc2)O1)N1CCOCC1 | 26 | 18
COc1ccc(S(=O)(=O)N(C)C[C@@H]2Oc3ccc(NC(=O)Cn4cnnn4)cc3CC(=O)N([C@H](C)CO)C[C@H]2C)cc1 | 15 | 14
O=C(CN1CCOCC1)N1CC2(C1)[C@H](c1ccccc1)[C@@H](CO)N2Cc1ccccc1 | 23 | 11
COc1ccccc1CNC(=O)C[C@H]1CC[C@H]2[C@@H](COC[C@H](O)CN2Cc2ccc3c(c2)OCO3)O1 | -11 | -12

Additional compounds
SMILES	Vaccinia inh	Vaccinia inh Venus
COc1ccccc1CN1[C@@H]2CNC[C@H]1C2c1ccc(-c2ccncc2)cc1 (some centres undefined)	15	5
O=C(c1ccc2c(c1)OCO2)N1CC(=O)N2[C@H](CO)[C@@H](c3ccc(C#CC4CCCC4)cc3)[C@@H]2C1	-31	-27
N#C[C@@H]1[C@@H](c2ccccc2C2=CCCC2)[C@H](CO)N1C(=O)NC1CCCCC1	?	/
CCCC(=O)Nc1ccc2c(c1)OC[C@H](C)N(S(=O)(=O)c1cn(C)cn1)C[C@@H](C)[C@@H](OC)CN(C)C2=O	7	-2
C[C@H]1CN([C@@H](C)CO)C(=O)Cc2cc(NS(=O)(=O)c3cccs3)ccc2O[C@@H]1CN(C)Cc1ccc(Oc2ccccc2)cc1	-32	-20
C[C@H](CO)N1C[C@H](C)[C@@H](CN(C)Cc2ccc(C(=O)Nc3ccccc3N)cc2)Oc2c(NC(=O)c3ccc(-c4nccs4)cc3)cccc2C1=O	-4	8
O=C(O)C[C@H]1CC[C@H](NC(=O)CCN2CCCCC2)[C@H](CO)O1	14	15
CCCN1C[C@@H](C)[C@@H](OC)CN(C)C(=O)c2ccc(NC(=O)c3cccc(F)c3)cc2OC[C@H]1C	-9	-3
CCC(=O)N1[C@@H]2c3ccc(C4=CCCCC4)c(=O)n3C[C@@H]2[C@@H](CO)[C@@H]1C(=O)NC1CCC1	7	15
COCC(=O)N[C@@H]1C=C[C@H](CC(=O)NCc2ccc(Cl)cc2)O[C@@H]1CO	18	12
CO[C@@H]1CN(C)C(=O)c2cc(NS(=O)(=O)c3cccc(C)c3)ccc2OC[C@H](C)NC[C@@H]1C	4	15
O=S(=O)(c1ccc(F)cc1)N1[C@@H]2CNC[C@H]1C2c1ccc(-c2ccccc2)cc1 (some centres undefined)	6&12	10&13
Cc1noc(C)c1NC(=O)N(C)C[C@H]1Oc2ccc(NS(=O)(=O)c3ccccc3)cc2C(=O)N([C@H](C)CO)C[C@H]1C	-4	4
CNC[C@@H]1Oc2cc(C#Cc3ccccn3)ccc2S(=O)(=O)N([C@H](C)CO)C[C@H]1C	17	14
O=C(C[C@H]1CC[C@H](NC(=O)c2ccccc2)[C@H](CO)O1)NCc1ccncn1	5	9
COc1ccc(NC(=O)Nc2cccc3c2O[C@H](CN(C)C(=O)Nc2ccccc2)[C@@H](C)CN([C@H](C)CO)C3=O)cc1	15	15
CCC(=O)N[C@H]1CC[C@@H](CCNS(=O)(=O)c2ccc(Cl)cc2)O[C@H]1CO	9	3
C[C@@H]1CCCCO[C@@H](CN(C)C(=O)Nc2ccc3c(c2)OCO3)[C@H](C)CN([C@@H](C)CO)C(=O)c2cc(NC(=O)c3ccncc3)ccc2O1	27	13
C[C@H](NC(=O)C[C@H]1CC[C@@H](NC(=O)C2CCC2)[C@@H](CO)O1)c1ccccc1	-1	-7
C[C@@H]1CCCCO[C@@H](CN(C)C(=O)Nc2ccc(F)cc2)[C@H](C)CN([C@H](C)CO)C(=O)c2cc(NC(=O)C3CCCCC3)ccc2O1	-21	-3
C[C@H](CO)N1C[C@H](C)[C@@H](CN(C)CC2CCCCC2)OCCCC[C@H](C)Oc2ccc(NC(=O)Nc3cccc4ccccc34)cc2C1=O	-17	-7
